Screening data: PubChem BioAssay, several laboratories
ALR H2O2 inh = inhibitors of human sulfhydryl oxidase ALR. P55789. purified ALR, DTT oxidation, H2O2 HRP-luminol luminescence. inhibition, % (no concentration beside the values). hit rate 3.8% among 290,000;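 active means mean and each replicate at 75% or more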;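 further: stock transfer was 7.5 nL into about 7.5 µL; 0% = neutral wells and 100% = wells with inactivated enzyme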
Target sequence (P55789 whole entry, looked up): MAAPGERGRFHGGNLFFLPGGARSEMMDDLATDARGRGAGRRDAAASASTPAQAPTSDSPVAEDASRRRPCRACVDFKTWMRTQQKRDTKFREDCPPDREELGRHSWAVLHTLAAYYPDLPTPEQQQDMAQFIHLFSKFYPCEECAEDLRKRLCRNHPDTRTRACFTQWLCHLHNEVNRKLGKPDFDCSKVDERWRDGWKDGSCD
rRNA inh HTS = inhibits bacterial ribosomal RNA function over humanized ribosomes; E. coli WT GFP vs humanized-ribosome RFP mutants, fluorescence, 24 h; stronger effect = lower value; DMSO median 0, no signal -100; GFP signal change (wild-type ribosome), % (no concentration beside the values); hit rate 1.6% among 350,000; AID 720706;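 active means significant combined selectivity score with lowered wild-type GFP, culture density cut under 30%, mutant RFP and density less affected; inactive means any of these conditions unmet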; further: one replicate is shown; some compounds called inactive have numbers as strong as hits
UCH37 inh = human UCH37 deubiquitinating enzyme inhibition | Q9Y5K5 | purified proteasome/UCH37, Ub-AMC cleavage fluorescence | inhibition, % (test concentration not listed) | hit rate 0.33% among 330,000 | AID 588478;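 active means mean of two replicates above 20%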;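 further: 0% = compound-free wells with enzyme and 100% = wells lacking proteasome; stock transfer was 100 nL into about 20 µL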
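Signal – fluorescence, ex 355 nm, em 460 nm · System – Proteasome-bound UCH37 · Input – 0.15 nM proteasome as dispensed · Timing – 30 min preincubation with enzyme, 25 min cleavage at room temperature · Read-out basis – percent inhibition of cleavage signal versus uninhibited and no-proteasome wells · Medium – Tris-HCl pH 7.4 with ATP-MgCl2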
B2AR ag = agonists of human beta-2 adrenergic receptor inducing internalization; P07550; hit rate 0.43% among 340,000; AID 504454; Am2.2-beta2AR cells, FAP receptor internalization, flow cytometry; reference of the scale not given here; response, % (test concentration not listed);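 active means response above a set limit, near 3 SD of response in nonfluorescent compounds, cut at about 42% in these data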;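 further: stock transfer was 100 nL into about 11 µL; a reference agonist was the positive control; negative values mostly stem from fluorescent compounds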
E coli growth = inhibitors of Escherichia coli growth; OD600, 23 h; stronger effect = lower value; OD600 absorbance (no concentration beside the values); hit rate 0.21% among 330,000;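 active means OD600 absorbance below the run mean of sample wells minus 3.6 SD, in any replicate, cut at about 0.56 in these data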;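 further: stock transfer was 300 nL into about 60 µL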
FGF22 binding = binders of recombinant human FGF22 by thermal shift | Q9HCT0 | SYPRO orange fluorescence; percent of sucrose octasulfate shift, DMSO zero | calls only at 9.99 µM | hit rate 1.5% among 340,000 | AID 651658;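 active means melting point raised past a set limit in the mean and every replicate; three in four hits are not shown here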
Target sequence (Q9HCT0 whole entry, looked up): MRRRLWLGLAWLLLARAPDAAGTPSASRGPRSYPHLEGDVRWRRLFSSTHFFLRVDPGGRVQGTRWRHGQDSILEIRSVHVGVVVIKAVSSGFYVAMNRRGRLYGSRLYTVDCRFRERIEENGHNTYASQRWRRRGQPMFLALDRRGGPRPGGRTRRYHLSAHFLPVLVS
HNF4A DNA FP = change in binding of human HNF4 alpha to DNA; activity change, % at 10 µM; hit rate 0.3% among 360,000; HNF4a-FITC DNA binding, fluorescence polarization, 1 h; AID 1224865; P41235; in the data active means activity change above about 30%, passing the limit was not always enough;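 further: controls were the assay level and a saturating level of protein; the project sought stronger binding though the title names inhibitors; some compounds called inactive have numbers as strong as hits; positive values seem to mean higher polarization but the record does not say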
Target sequence (P41235 whole entry, looked up): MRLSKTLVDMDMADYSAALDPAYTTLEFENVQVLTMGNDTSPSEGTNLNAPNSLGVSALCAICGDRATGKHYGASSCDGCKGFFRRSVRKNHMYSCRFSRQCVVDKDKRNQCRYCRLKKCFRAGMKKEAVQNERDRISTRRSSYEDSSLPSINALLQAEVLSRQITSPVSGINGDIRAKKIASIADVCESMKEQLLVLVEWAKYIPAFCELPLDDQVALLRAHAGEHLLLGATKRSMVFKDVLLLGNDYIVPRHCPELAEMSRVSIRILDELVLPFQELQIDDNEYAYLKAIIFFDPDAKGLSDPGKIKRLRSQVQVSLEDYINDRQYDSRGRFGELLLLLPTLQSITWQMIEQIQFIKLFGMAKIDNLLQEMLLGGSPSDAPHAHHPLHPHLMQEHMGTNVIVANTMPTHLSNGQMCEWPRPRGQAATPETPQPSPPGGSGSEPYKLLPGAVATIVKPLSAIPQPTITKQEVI
rRNA inh HTS OD600 = also measured in rRNA inh HTS; calls as there; OD600 change, %; measured here: OD600 growth;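 optical density of the mix in the first replicate; 0 = DMSO median and -100 = no signal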
rRNA inh HTS RFP = recorded beside rRNA inh HTS, whose call it bears; RFP signal change, %; measured here: RFP humanized mutant strains;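 first replicate; 0 = DMSO median and -100 = no signal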
Starred values were filed as active, the others as inactive; i = inactive; . = no result given; + = active, no number. Only part of the results is shown; rates above refer to the full screens.

ALR H2O2 inh	rRNA inh HTS	rRNA inh HTS OD600	rRNA inh HTS RFP	UCH37 inh	B2AR ag	E coli growth	FGF22 binding	HNF4A DNA FP	mol
-9.8	.	.	.	2.8	7.5	0.694	.	2.4	Cc1ccc(N(C(=O)c2ccc(S(=O)(=O)N(C)C)cc2)C2C=CS(=O)(=O)C2)cc1 (stereo unspecified)
-0.3	10.9	12.9	1.7	4.9	-2.7	0.692	i	1.0	O=C(Cn1ncc2c([nH]c3ccccc32)c1=O)NCCc1ccccc1
-13.4	.	.	.	-1.4	2.3	0.75	.	0.2	COc1nnc(-c2ccc(C)c(S(=O)(=O)NCCO)c2)c2ccccc12
-8.9	4.3	4.6	1.0	3.9	8.2	0.632	i	7.6	CCCn1c(C)cc(-c2csc(NC(=O)CCc3nc4ccccc4c(=O)[nH]3)n2)c1C
-4.0	.	.	.	-0.7	-4.4	0.683	.	-3.5	Cc1cc(NC(=O)C23CCC(C)(C(=O)O2)C3(C)C)no1 (stereo unspecified)
14.0	.	.	.	0.6	-5.3	0.709	.	-1.0	Cc1cc(C(=O)Nc2cc(C)n(Cc3ccc(Cl)cc3)n2)no1
-1.3	.	.	.	4.3	-2.5	0.697	.	-4.9	O=C(Nc1ccccc1)C1=C(O)CC(c2ccc(Cl)cc2)N2CCN=C12 (stereo unspecified)
-8.3	-0.6	-10.7	4.8	-0.8	-2.0	0.683	i	0.8	Cc1cc2cc(CN(CC3CCCO3)C(=S)NCc3ccco3)c(=O)[nH]c2cc1C (stereo unspecified)
-2.2	9.2	6.9	-1.7	-1.7	0.5	0.755	i	-1.7	COc1cccc(N2CC(C(=O)Nc3nnc(SCC(=O)N4CCCC4)s3)CC2=O)c1 (stereo unspecified)
-3.2	10.2	1.9	2.8	4.4	9.6	0.682	i	-1.1	CCC(=O)N1c2ccc(S(=O)(=O)N3CCN(C)CC3)cc2CC1C (stereo unspecified)
54.2	13.1	11.3	0.9	0.7	-6.8	0.693	i	-1.9	O=C(O)c1ccc(COc2ccccc2[N+](=O)[O-])o1
-0.9	-1.6	-1.6	-0.5	-2.3	3.3	0.696	i	3.2	COc1ccc(CNc2c(CO)cnc3c2cnn3C)cc1
97.6*	-1.1	-14.7	13.2	1.6	3.6	0.632	i	-2.8	CCn1c2ccccc2c2cc(NC(=O)c3ccccc3-c3ccccc3C(=O)O)ccc21
5.0	.	.	.	-1.0	-2.2	0.746	.	2.4	O=C(O)c1oc2ccc(Br)cc2c1-n1cccc1
-2.3	.	.	.	-0.9	0.2	0.7	.	1.4	COc1ccc(S(=O)(=O)N2CCCCC2)cc1
.	.	.	.	3.9	-4.6	0.715	i	2.4	CCN(CC(=O)NC1CCS(=O)(=O)C1)C(C)C(=O)Nc1ccc(F)cc1 (stereo unspecified)
-5.2	6.8	15.9	-1.3	1.9	-3.5	0.715	i	0.4	CCCCN(CCCC)CCNC(=O)CN1C(=O)COc2ccc(S(=O)(=O)N3CCC(C)CC3)cc21
6.6	-0.1	-30.5	-0.2	3.8	18.4	0.673	i	1.5	CC(C)c1ccc(OC(=O)c2cccc(S(=O)(=O)N3CCN(C)CC3)c2)cc1
-4.2	.	.	.	0.7	4.3	0.786	.	-2.1	CCOc1ccc(-n2c(C)nc3cc(C(=O)NCCCN4CCOCC4)ccc32)cc1
-3.5	1.7	-14.0	-0.6	3.1	0.0	0.613	i	-1.3	Cn1c(=O)c(-c2ccccc2[N+](=O)[O-])c(Cl)c2ccccc21
.	-2.7	1.0	-2.2	.	-4.9	.	.	1.2	C=CC1(C)CN(Cc2ccco2)S(=O)(=O)c2c(F)cccc2O1 (stereo unspecified)
.	-8.1	-10.2	-7.6	.	.	.	i	5.8	CC(CCl)n1c(=O)c2ccccc2n1C(=O)c1ccccc1 (stereo unspecified)
-11.0	.	.	.	-0.8	6.6	0.614	.	1.5	O=S1(=O)CC(O)C(NCc2ccco2)C1 (stereo unspecified)
-5.2	7.1	2.4	-6.0	4.0	-1.4	0.66	.	1.8	CCN1C(=O)c2cccc3c(NC(=O)C4CCCCC4)ccc1c23
-7.1	8.3	-3.8	-2.3	-1.2	-5.6	0.671	i	-1.4	COc1ccc(CNCc2ccc3c(c2)OCO3)c(OC)c1OC
-4.9	7.8	0.9	4.1	4.6	1.2	0.684	i	1.7	COC(=O)c1ccc(S(=O)(=O)N(CCO)Cc2ccccc2)n1C
4.6	.	.	.	-34.5	50.4*	0.781	.	2.8	CCCNc1nc(-c2ccccc2)c(C(=O)OCC)cc1C#N
-5.3	1.1	-4.2	4.9	3.9	-0.7	0.691	i	2.0	COc1cc2c(cc1OC)C(COc1ccc([N+](=O)[O-])cc1)NCC2 (stereo unspecified)
.	-19.9	-25.8	-6.1	.	.	.	i	-8.1	CC(=O)Nc1ccc(-c2ccnc3c2CC(C(=O)NCc2cccc(Cl)c2)O3)cc1 (stereo unspecified)
52.3	-18.4	-23.0	20.2	0.5	0.3	0.677	i	-1.4	COc1ccc(Nc2oc(COc3ccccc3OC)nc2C#N)cc1

Taken from the listing for reference:
ALR H2O2 inh	rRNA inh HTS	rRNA inh HTS OD600	rRNA inh HTS RFP	UCH37 inh	B2AR ag	E coli growth	FGF22 binding	HNF4A DNA FP	mol
-9.8	.	.	.	2.8	7.5	0.694	.	2.4	Cc1ccc(N(C(=O)c2ccc(S(=O)(=O)N(C)C)cc2)C2C=CS(=O)(=O)C2)cc1 (stereo unspecified)
-0.3	10.9	12.9	1.7	4.9	-2.7	0.692	i	1.0	O=C(Cn1ncc2c([nH]c3ccccc32)c1=O)NCCc1ccccc1
-13.4	.	.	.	-1.4	2.3	0.75	.	0.2	COc1nnc(-c2ccc(C)c(S(=O)(=O)NCCO)c2)c2ccccc12

Laid out differently: four of the compounds above
mol	ALR H2O2 inh	rRNA inh HTS	rRNA inh HTS OD600	rRNA inh HTS RFP	UCH37 inh	B2AR ag	E coli growth	FGF22 binding	HNF4A DNA FP
Cc1cc(C(=O)Nc2cc(C)n(Cc3ccc(Cl)cc3)n2)no1	14.0	.	.	.	0.6	-5.3	0.709	.	-1.0
O=C(Nc1ccccc1)C1=C(O)CC(c2ccc(Cl)cc2)N2CCN=C12 (stereo unspecified)	-1.3	.	.	.	4.3	-2.5	0.697	.	-4.9
Cc1cc2cc(CN(CC3CCCO3)C(=S)NCc3ccco3)c(=O)[nH]c2cc1C (stereo unspecified)	-8.3	-0.6	-10.7	4.8	-0.8	-2.0	0.683	i	0.8
COc1cccc(N2CC(C(=O)Nc3nnc(SCC(=O)N4CCCC4)s3)CC2=O)c1 (stereo unspecified)	-2.2	9.2	6.9	-1.7	-1.7	0.5	0.755	i	-1.7

(cont.)
ALR H2O2 inh	rRNA inh HTS	rRNA inh HTS OD600	rRNA inh HTS RFP	UCH37 inh	B2AR ag	E coli growth	FGF22 binding	HNF4A DNA FP	mol
-2.9	-20.0	-12.7	9.8	3.3	4.6	0.658	i	-2.3	O=C1OCCC1Sc1nnc(-c2ccccc2Br)n1Cc1ccccc1 (stereo unspecified)
.	1.1	0.4	-4.6	3.0	-4.2	0.68	i	1.6	CCNc1ccc(S(=O)(=O)N(C)C)cc1NCC(=O)Nc1ccc(Br)cc1F
21.4	-33.5*	0.3*	9.4*	.	-4.9	.	+	-2.1	O=C(N/N=C/c1c[nH]c2ccc(Br)cc12)C1CC1
4.4	.	.	.	.	8.2	.	.	-1.5	CCCc1nc2ccccc2c(=O)n1/N=C/c1c(C)[nH]n(-c2ccc(C)cc2)c1=O
-2.4	-2.3	-6.1	-0.3	5.5	-4.7	0.704	i	-3.6	COc1ccc(N(CC(=O)NCc2ccc(F)cc2)C(=O)CCC(=O)Nc2nccs2)cc1
24.0	-8.4	-3.3	-1.8	8.4	64.1*	0.674	i	5.8	CCn1nc(NS(=O)(=O)c2ccc([N+](=O)[O-])cc2)c2cc3ccccc3nc21
5.7	.	.	.	0.9	7.7	0.691	.	-3.3	CC(=O)N/C(=C\c1ccccc1)C(=O)OCC(=O)N(C)C1CCCCC1
-3.2	-15.8	-11.7	2.3	.	-5.2	.	i	0.8	COc1cccc(NC(=O)CN(C)CC(=O)Nc2ccc(C)c([N+](=O)[O-])c2)c1
-3.7	.	.	.	0.5	5.9	.	i	3.5	O=C1N[C@H](Cc2ccccc2)COC(=O)[C@H](Cc2ccc(F)cc2)CC/C=C/C[C@@H]1CC(=O)N(CCO)Cc1ccccc1
1.3	4.7	14.3	-4.6	3.5	2.1	.	i	0.6	C#CCNC(=O)C1=C[C@@H](c2ccccc2)[C@H](CCCO)[C@@H](OCC)O1
-5.8	.	.	.	1.7	2.7	0.757	.	-5.6	COc1ccc(CCNC(=O)c2ccc(=O)[nH]n2)cc1OC
-22.3	.	.	.	2.1	-6.7	0.716	.	2.6	Cc1ccc(NC(=O)c2ccc(-c3nn(C)c(=O)c4ccccc34)cc2)c(C)c1
-41.8	.	.	.	3.5	9.9	0.681	.	-3.3	CCOC(=O)CCC(NC(=O)c1ccc(NCN2C(=O)CCC2=O)cc1)C(=O)OCC (stereo unspecified)
-3.1	.	.	.	1.7	3.0	0.798	.	-1.5	COC(=O)c1ccccc1N1C(=O)[C@@H]2C(c3ccc(Br)cc3)=NO[C@@H]2C1=O
-7.8	.	.	.	1.7	2.3	0.721	.	-1.9	CC1(C)CC(=O)c2cc3c(N)c(C(=O)NCc4ccccc4)sc3nc2C1
-0.6	8.2	17.0	-0.1	5.3	.	.	i	.	C[C@@H](O)[C@@H]1NC(=O)c2cc([N+](=O)[O-])cc(I)c2NCC[C@@H](C(N)=O)NC(=O)CNC1=O
-8.3	.	.	.	4.7	13.1	0.656	.	-2.9	CC(C)(C)c1ccc(C(=O)N/C(=C/c2cccs2)C(=O)NCc2ccco2)cc1
-29.6	.	.	.	-2.0	3.5	0.689	.	2.1	O=C(Oc1cccc2c(OC(=O)N3CCCC3)cccc12)N1CCCC1
.	4.3	3.2	0.4	3.4	2.7	0.665	i	-1.6	CCCn1c(SCC(=O)Nc2cc(S(=O)(=O)N3CCCCC3)ccc2C)n[nH]c1=O
-1.4	0.9	-4.6	-3.4	0.9	-3.4	0.728	i	-2.8	Cc1ccccc1-n1ncc2c1CC(C)(C)CC2NC(=O)c1ccncc1 (stereo unspecified)
-26.6	.	.	.	0.6	-3.0	0.679	.	-3.4	COCCOc1cc(Nc2nnc(C(F)(F)F)s2)c(Cl)cc1Cl
6.4	6.9	7.5	0.7	.	0.5	.	i	0.8	CC(C)C[C@H](NC(=O)c1nc[nH]c1C(=O)N1CCNCC1)C(=O)OCc1ccccc1
-10.1	7.8	2.1	-13.3	5.1	6.7	0.736	i	-1.8	CCOC(=O)C1=C(O)CCn2c1nc1ccccc12
